# Calb FLC = affects C. albicans growth with fluconazole; C. albicans CaCi-2 (fluconazole-resistant clinical isolate) + fluconazole, Alamar Blue growth, 48 h; growth inhibition, % (no concentration beside the values); hit rate 0.57% among 300,000; AID 1979;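 active = most replicates above 75%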;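 also: all wells also contain fluconazole at 8 µg/ml as a sub-toxic cotreatment; 0% = median of DMSO wells and 100% = median of geldanamycin control wells; wells of about 8 µL received 7.5 nL stock; the first replicate is given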
# T cruzi inh = T. cruzi replication inhibition; T. cruzi beta-gal in NIH3T3, luminescence, 90 h; inhibition, % (concentration not given with the values); hit rate 1.4% among 300,000;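 active = mean inhibition across valid replicates above about 55%, limit read from the data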;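 also: signal also drops with host cell toxicity which is not excluded here; 0% = plate median of DMSO wells and 100% = zero luminescence signal; higher percent means less beta-gal luminescence so fewer parasites; stock transfer was 50 nL into about 50 µL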
# Beta cell apopt = beta cell apoptosis inhibition; INS-1E cytokine-induced death, ATP luminescence, 48 h; percent of positive-control rescue, neutral wells zero; protection from apoptosis, % (concentration not given with the values); hit rate 0.8% among 300,000;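 active = all replicates at 75% or more, or half of them and the mean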;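 also: 0% = cytokine-treated negative control wells and 100% = positive control rescue; higher means more ATP so stronger rescue from cytokine killing; wells of about 40 µL received 100 nL stock; the first replicate is given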
# Bfl-1 A1 inh = inhibitors of the anti-apoptotic protein A1, read as caspase activation; MEF A1-2A-BIM cells, Caspase-Glo 3/7 luminescence, 3 h; percent of clofoctol response, vehicle zero; caspase activation, % (test concentration not listed); hit rate 0.066% among 330,000;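 active = over half of replicate activation scores above 10%, or exactly half above 10 with the replicate mean above 10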;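 also: wells of about 30 µL received 50 nL stock; many hits fall short of the cut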
# rRNA inh HTS = inhibits bacterial ribosomal RNA function over humanized ribosomes; E. coli WT GFP vs humanized-ribosome RFP mutants, fluorescence, 24 h; hits give low values; DMSO median 0, no signal -100; GFP signal change (wild-type ribosome), % (no concentration beside the values); hit rate 1.6% among 350,000; AID 720706;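 active = significant combined selectivity score with lowered wild-type GFP, culture density cut under 30%, mutant RFP and density less affected; inactive = any of these conditions unmet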; also: one replicate is shown; some compounds called inactive have numbers as strong as hits
# B2AR ag = human beta-2 adrenergic receptor agonism by FAP; hit rate 0.43% among 340,000; Am2.2-beta2AR cells, FAP receptor internalization, flow cytometry; reference of the scale not given here; response, % (test concentration not listed); P07550;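 active = response above a set limit, near 3 SD of response in nonfluorescent compounds, cut at about 42% in these data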;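 also: stock transfer was 100 nL into about 11 µL; a reference agonist was the positive control; negative values mostly stem from fluorescent compounds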
# ALR inh = human ALR oxidase inhibition via reduced H2O2; P55789; purified ALR, DTT oxidation, H2O2 HRP-luminol luminescence; inhibition, % (concentration not given with the values); hit rate 3.8% among 290,000;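 active = mean and each replicate at 75% or more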;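 also: stock transfer was 7.5 nL into about 7.5 µL; 0% = neutral wells and 100% = wells with inactivated enzyme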
# LANA-H2A inh = blocks KSHV LANA binding to histone H2A/H2B; Q9QR71; cell-free LANA-H2A/H2B peptide, fluorescence polarization; inhibition, % (test concentration not listed); hit rate 0.6% among 320,000; AID 2629; in the data active = inhibition mostly above about 10%, no sharp cut-off; inactive = mostly below about 6.7%;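 also: stock transfer was 7.5 nL into about 10 µL; 0% = median of vehicle wells and 100% = median of positive control wells; one replicate is shown; the record names a cut of 25% in any replicate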
# Target sequence (Q9QR71 whole entry, looked up): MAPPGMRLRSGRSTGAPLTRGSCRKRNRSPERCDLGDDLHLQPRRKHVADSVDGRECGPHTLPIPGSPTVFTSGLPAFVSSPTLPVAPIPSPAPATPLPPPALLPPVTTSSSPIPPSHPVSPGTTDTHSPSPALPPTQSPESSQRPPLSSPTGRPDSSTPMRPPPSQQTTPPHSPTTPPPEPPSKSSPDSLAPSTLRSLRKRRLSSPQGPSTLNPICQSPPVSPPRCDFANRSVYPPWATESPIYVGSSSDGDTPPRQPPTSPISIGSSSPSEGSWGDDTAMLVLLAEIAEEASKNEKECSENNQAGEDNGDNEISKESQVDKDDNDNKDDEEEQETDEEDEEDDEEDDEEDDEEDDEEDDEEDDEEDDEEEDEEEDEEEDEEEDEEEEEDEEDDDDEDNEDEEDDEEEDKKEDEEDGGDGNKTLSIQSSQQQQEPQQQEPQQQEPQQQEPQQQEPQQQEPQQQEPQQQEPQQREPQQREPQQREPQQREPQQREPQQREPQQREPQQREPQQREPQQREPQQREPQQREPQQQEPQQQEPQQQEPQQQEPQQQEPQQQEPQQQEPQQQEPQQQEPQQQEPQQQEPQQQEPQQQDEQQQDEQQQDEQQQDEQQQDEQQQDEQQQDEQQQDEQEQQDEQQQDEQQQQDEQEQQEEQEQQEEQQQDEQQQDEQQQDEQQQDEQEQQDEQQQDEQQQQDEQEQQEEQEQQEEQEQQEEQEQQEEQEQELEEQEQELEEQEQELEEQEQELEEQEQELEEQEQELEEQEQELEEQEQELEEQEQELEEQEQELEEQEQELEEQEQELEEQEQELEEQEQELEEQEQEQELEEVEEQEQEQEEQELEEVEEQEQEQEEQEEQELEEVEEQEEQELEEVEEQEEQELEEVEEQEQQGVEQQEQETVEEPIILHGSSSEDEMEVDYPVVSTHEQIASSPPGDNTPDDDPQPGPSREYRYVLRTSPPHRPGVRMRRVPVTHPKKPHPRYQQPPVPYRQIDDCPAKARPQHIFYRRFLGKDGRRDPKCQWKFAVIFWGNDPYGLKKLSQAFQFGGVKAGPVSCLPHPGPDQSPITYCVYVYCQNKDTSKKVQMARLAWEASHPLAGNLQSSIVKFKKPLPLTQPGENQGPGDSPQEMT
# rRNA inh HTS OD600 = recorded beside rRNA inh HTS, whose call it bears; OD600 change, %; measured here: OD600 growth;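 optical density of the mix in the first replicate; 0 = DMSO median and -100 = no signal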
# rRNA inh HTS RFP = recorded beside rRNA inh HTS, whose call it bears; RFP signal change, %; measured here: RFP humanized mutant strains;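 first replicate; 0 = DMSO median and -100 = no signal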
# * marks the source's active call; other numbers are inactive results; x = no result given.
# Values run as follows: Calb FLC	T cruzi inh	Beta cell apopt	Bfl-1 A1 inh	rRNA inh HTS	rRNA inh HTS OD600	rRNA inh HTS RFP	B2AR ag	ALR inh	LANA-H2A inh
O=C1c2ccccc2C(O)(c2ccccc2)N1CCc1ccccc1 (stereo unspecified)
→ -2.5	15.4	3.9	0.2	-31.4	-57.6	-4.1	-1.9	30.4	-0.4
CCOC(=O)C1(Cc2cccc(OC)c2)CCN(C(C)CC(C)(C)O)CC1 (stereo unspecified)
→ -28.7	x	-1.2	0.3	12.9	15.0	0.6	-3.3	x	0.6
CCOCCCNc1ncnc2c1[nH]c1ccccc12
→ x	9.4	78.3*	0.3	x	x	x	-2.9	-4.7	6.8
N/C(=N\c1nc2c(c(=O)[nH]1)CCC2)Nc1cccc(Cl)c1
→ 3.8	0.2	0.5	0.7	x	x	x	4.2	-19.6	3.6
Cc1ccc(NS(=O)(=O)c2ccc3c(c2)NC(=O)C(C)C(=O)N3)c(Br)c1 (stereo unspecified)
→ -6.2	-3.9	-12.7	x	-0.3	-7.0	-7.0	-32.8	-3.0	-3.6
COc1ccc(C)cc1N(C(=O)COc1cccc(F)c1)c1nc2ccccc2s1
→ 5.5	29.7	3.0	1.4	16.1	21.3	5.3	8.9	6.1	-0.3
OCc1ccc(-c2nn(Cc3ccccc3)c3ccccc23)o1
→ 4.2	-5.9	5.6	0.9	-33.8	-44.3	-6.2	11.7	92.5*	-6.6
CC(C)N1CSC(=S)N(Cc2ccccc2)C1
→ 1.1	14.5	-0.7	-0.7	3.9	5.0	-3.1	7.9	-2.3	-1.5
COc1ccc(-c2csc(NC(=O)c3cccs3)c2C(=O)O)cc1OC
→ 1.0	-0.7	3.5	-6.3	-34.3*	-17.7*	-10.6*	-5.9	x	-3.6
CN(C(=O)CSc1nnc(-c2ccccc2F)o1)c1ccccc1
→ 0.3	2.3	1.8	-1.6	0.8	-12.6	0.6	6.9	-5.3	-4.3
CN(Cc1ccccc1)c1nc(N)c([N+](=O)[O-])c(NCc2ccccc2)n1
→ 3.5	41.3	61.4	0.4	x	x	x	6.3	-14.9	3.7
CCC1CCC(c2nnc(-c3ccc([N+](=O)[O-])cc3)o2)CC1 (stereo unspecified)
→ -0.4	6.5	-4.0	1.2	x	x	x	4.2	21.7	0.6
CCC(=O)NCCNc1nc2cc(C)c(C)cc2cc1C#N
→ 5.5	-6.7	-4.1	-1.3	x	x	x	3.9	x	1.3
CCn1c(-c2cccnc2)n[nH]c1=S
→ -2.3	2.9	-2.4	0.7	8.5	1.1	3.5	-1.4	43.6	3.6
O=C(NCc1ccncc1)c1cncc(Br)c1
→ -9.8	-5.1	-1.1	0.5	10.4	11.8	0.6	-5.6	-17.1	1.0
O=C1CSC(c2cccnc2)N1c1ccc(F)cc1 (stereo unspecified)
→ -4.0	5.5	-5.4	-0.1	x	x	x	-0.5	99.1*	-5.2
CCOC(=O)c1ccc(NC(=O)CC2OCCN(CC)C2=O)cc1 (stereo unspecified)
→ 7.1	-7.6	-11.6	0.7	x	x	x	-4.1	86.0*	3.5
CSc1nc(SCC(N)=O)c2c3c(sc2n1)CN(C)CC3
→ x	33.2	-4.7	-0.5	x	x	x	17.9	-12.1	-2.2
CC(=O)c1ccc(OCc2cc(C(=O)NC3CCCCC3)no2)cc1
→ -0.8	-2.6	-5.3	-1.2	18.7	26.7	-1.2	-4.9	-0.1	1.6
CC1=C(C(=O)Nc2ccccn2)C(c2ccc(Cl)cc2Cl)NC(=S)N1 (stereo unspecified)
→ -5.1	4.6	1.4	-0.7	-2.2	-5.6	-1.5	-9.1	-1.2	-1.2
O=C(c1ccc(Cl)cc1)c1ccc(CN2C(=O)c3ccccc3C2=O)o1
→ -3.1	-5.3	x	-0.6	x	x	x	-8.5	1.6	-0.2
Cc1ccccc1C(=O)c1cccn1CC(=O)NCCCc1ccccc1
→ -2.6	11.1	0.1	1.4	10.3	-1.0	0.6	-0.5	-2.8	-1.9
COc1ccc(C)cc1NC(=O)c1nnn(Cc2cccc(C(F)(F)F)c2)c1N
→ -28.0	7.0	-8.8	-0.3	-11.3	-3.5	-0.6	-13.6	-5.3	1.5
Cc1ccc(OCCCn2ccnc2)c(Br)c1
→ -16.6	30.7	-0.6	0.3	-17.9	-54.8	10.6	-5.6	-15.4	2.1
O=[N+]([O-])c1cccc(S(=O)(=O)Nc2ccc(-c3ccc(N4CCOCC4)nn3)cc2)c1
→ 8.1	5.4	4.2	-0.2	-9.3	-1.7	-2.8	-2.6	-0.4	1.4
O=C(Cc1cccc2ccccc12)Nc1ccccc1Br
→ -0.6	0.9	-5.2	-0.1	15.6	12.1	6.2	-1.3	-17.9	1.7
Cc1ccc(S(=O)(=O)NC(=NC(C)C)c2ccccc2)cc1
→ -11.6	-14.5	-3.1	0.9	16.4	5.4	2.4	11.8	3.0	6.5
CCOC(=O)Cn1cnc2c(sc3nc(C)cc(C)c32)c1=O
→ 17.2	-11.3	0.3	-0.2	0.8	-2.1	1.3	3.0	1.8	-2.7
CCc1sc(NC(=O)CN2CCC(C(N)=O)CC2)nc1-c1ccccc1
→ -3.3	10.3	-5.6	1.0	-15.6	-19.4	3.9	6.1	-1.5	-4.9
Nc1nc(SCC(=O)NC2CCCCC2)n[nH]1
→ 0.1	9.4	-4.6	0.3	9.7	-4.7	2.3	-3.5	1.5	3.3
Cc1ccc(/C=C2/SC(=S)N(CCCC(=O)Nc3cc([N+](=O)[O-])ccc3O)C2=O)cc1
→ -2.5	-4.0	-11.1	-0.1	1.3	1.3	-0.2	7.8	0.0	9.4
CC1C/C(=N/N2C(=O)CSC2=S)CC(C)(C)C1 (stereo unspecified)
→ -13.6	-23.2	x	0.8	x	x	x	0.4	5.3	3.7
CCCc1cc(C(=O)Nc2ccc(C(=O)c3ccccc3)cc2)n(C)n1
→ 13.3	8.6	11.7	0.9	-6.6	-52.4	4.8	6.9	-1.2	2.3
O=C(c1ccc(NS(=O)(=O)c2cccc3cccnc23)cc1)N1CCCCC1
→ -1.3	11.2	2.8	0.0	-5.7	-12.7	-3.4	-0.9	-1.2	-5.8
Cc1ccc(OCC(=O)NC2CCS(=O)(=O)C2)c([N+](=O)[O-])n1 (stereo unspecified)
→ -1.9	-4.8	1.9	1.2	6.4	13.6	-2.1	0.2	-3.3	-3.1
CN1C(=O)/C(=C\c2ccccc2OCc2ccccc2)SC1=S
→ 6.1	0.1	3.3	0.7	6.1	0.4	6.1	11.4	-11.9	2.5
Cc1ccccc1Nc1nc(N)nc(CSc2nc3ccccc3c(=O)n2C)n1
→ 1.3	-8.4	21.7	1.9	x	x	x	-5.0	0.3	-9.5
Cc1ccc(NS(=O)(=O)c2cc([N+](=O)[O-])ccc2N/N=C/c2sc(N3CCOCC3)nc2-c2ccccc2)c(C)c1
→ 5.0	7.0	75.1*	0.4	12.9	8.1	0.7	-397.6	1.8	0.5
COc1ccc(C(C)=O)cc1COC(=O)CCNS(=O)(=O)c1ccc(C)c(C)c1
→ x	1.0	-0.2	-0.8	-12.1	-16.8	3.6	4.2	2.3	-0.5
O=C(CSc1ncccc1C(=O)O)c1ccc2ccccc2c1
→ -11.3	-15.2	1.5	-0.2	x	x	x	-1.4	-2.0	-3.4
CN(C)c1ccc(/C=C/C(=O)c2cccnc2)cc1
→ -20.3	10.8	-2.6	0.8	-10.4	2.5	12.9	3.4	99.2*	-8.3
Cc1cccc2cc(C#N)c(NCCCn3ccnc3)nc12
→ 10.5	24.1	4.6	0.1	x	x	x	1.9	-2.9	-4.9
NNC(=O)CNC(c1ccccc1)c1cc(Br)ccc1N (stereo unspecified)
→ 22.7	2.1	-3.6	-0.7	0.3	2.7	-1.8	1.0	18.5	2.1
COc1ccc(S(=O)(=O)O/N=C2\CCCc3ccccc32)cc1
→ -2.2	-1.7	0.0	1.2	x	x	x	5.9	-36.1	-9.1
CCc1ccccc1NC(=O)Nc1cccc(F)c1
→ -30.8	4.2	-5.2	-0.4	-14.2	-9.1	-0.6	-9.1	-1.8	0.7
COc1cc(CNC2CCCCCCC2)ccc1OCC(N)=O
→ -6.4	-12.1	-2.2	0.8	16.4	21.4	0.3	-1.1	-4.2	-0.9
COCCn1c(=NC(=O)CCS(=O)(=O)c2ccccc2)sc2cc(F)ccc21
→ 24.0	6.2	7.6	1.0	-0.7	-3.2	2.4	-3.1	6.7	-7.7
COC(=O)Nc1nn(-c2ccc(Cl)cc2)c(=O)c(C#N)c1C
→ -10.0	9.8	1.7	-0.3	0.3	-5.5	5.3	-16.8	3.1	-4.2
CCCCn1c(C)nc2cc(S(=O)(=O)N3CCOCC3)ccc21
→ x	x	-4.1	0.4	4.9	-0.5	0.4	-1.2	x	-3.2
COc1cc(C(C(=O)NC2CCCCC2)N(Cc2cccs2)C(=O)Cc2c[nH]c3ccccc23)cc(OC)c1OC (stereo unspecified)
→ 43.2	20.3	37.7	-0.2	x	x	x	6.6	-8.0	-1.9
O=c1c2[nH]c3ccccc3c2nc2n1CCCS2
→ -4.2	3.8	-5.9	-1.5	-3.2	-2.8	-3.8	-7.6	-4.2	0.5
Cc1cccc(C(=O)N2CCc3cc(-c4nc(NC(=O)Cn5nnc6ccccc6c5=O)sc4C)ccc32)c1
→ -6.3	2.4	2.1	0.8	x	x	x	x	x	x
O=C(Nc1cccc(S(=O)(=O)NC2=NCCCCC2)c1)C1COc2ccccc2O1 (stereo unspecified)
→ 6.7	2.3	-4.6	-0.4	-1.4	-4.4	1.7	2.9	-4.0	2.3
Oc1cncc(Cc2ccccc2)c1
→ -11.4	-6.5	-5.2	0.9	4.3	2.7	2.8	1.8	11.8	1.6
O=C(/C=C/c1ccc(S(=O)(=O)N2CCOCC2)cc1)N1CCN(c2ccc(F)cc2)CC1
→ 20.9	0.1	51.2	0.5	-6.8	-1.6	-3.0	-2.7	12.4	-3.3
COC(=O)Nc1nc2c(s1)CCCC2
→ -1.3	-7.6	-4.5	-0.3	x	x	x	-1.1	-3.4	13.2
O=C(Nc1ccccc1)Nc1ccc(C(=O)N2CCCC2)cc1
→ 0.9	-16.6	55.8	-8.7	7.3	-4.8	-1.3	1.4	-7.8	-0.6
CNC(=S)Nc1cccc([N+](=O)[O-])c1
→ -3.4	1.8	-5.7	-0.1	1.5	4.7	-7.9	-0.6	9.1	1.9
CCOC(=O)CN=C(NS(=O)(=O)c1ccc(Cl)cc1)c1ccccc1
→ 2.7	-12.6	1.5	0.6	0.7	-0.3	-1.2	-2.9	-4.1	1.5
CCCOc1cccc(C2C(C(=O)c3cccs3)=C(O)C(=O)N2CCN2CCOCC2)c1 (stereo unspecified)
→ 44.8	-10.6	x	0.6	0.4	3.2	0.3	-1.8	x	1.1
CC(=O)NC1=NC(=O)/C(=C/c2cc(C)n(-c3ccc(NC(C)=O)cc3)c2C)S1
→ -4.6	-19.1	2.6	-0.9	-29.1*	1.1*	0.5*	-4.2	x	-0.9
Cc1ccc(C(C)NC(=O)c2cccs2)cc1 (stereo unspecified)
→ -17.7	-18.1	x	-0.9	-2.1	-0.6	-1.3	1.9	-2.4	1.2

# Source: PubChem BioAssay (several laboratories)

# This is a subset (hit frequency here may not be typical).
